# D2 ag: Beta-Arrestin HTS for Positive Allosteric Modulators of the Human D2 Dopamine Receptor: Agonists. activation, % (test concentration not listed). D(2) dopamine receptor (Homo sapiens), P14416. 0.084% of 360,000 active. DiscoveRx PathHunter D2 beta-arrestin, luminescence, 90 min; 100% = 57 uM dopamine signal; in the data active = activation above about 40%; inconclusive = about 15% to 40%; inactive = below about 15%; also: compound concentration not given in the record; the text of the record calls up to 30% inactive
#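 Agonist mode: compounds alone added to overnight-plated D2 PathHunter cells for 90 min at 37 C, with 57 uM final dopamine (EC100) defining full response. Beta-arrestin recruitment detected by chemiluminescent reagent, read after 1 h at ambient temperature.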
# PINK1 modulator: A Quantitative High throughput Screen to Identify Chemical Modulators of PINK1 Expression. 0.2% of 410,000 active. AID 624263, 2012. Potency, µM (titrated, usually from 76.6 µM), for inactives: at the top dose activation (PINK1 increase), most hits filed as activators. PINK1 immunofluorescence, high-content cytometry, 24 h; active = well fitted activation curve with a large enough effect; inconclusive = small, poorly fitted or top-dose-only effect; inactive = flat fitted curve, though single readings scatter; cell line not stated here;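 also: potency is read from the fitted curve at half-maximal effect; % of control where 0% means no effect; nearly all actives have a fitted effect of over 65% in size; a mitochondrial uncoupler was the plate control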
#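 PINK1 protein, normally rapidly degraded, was detected by immunofluorescence after 24 hour compound treatment of a stable cell line. Titration data (5 concentrations) came from laser-scanning cytometry, with CCCP-treated wells as controls.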
# Sfp PPTase inh: qHTS Assay for Inhibitors of Bacillus subtilis Sfp phosphopantetheinyl transferase (PPTase) | Potency, µM, for the others: max response, negative = inhibition, hits mostly inhibitors | 4'-phosphopantetheinyl transferase ffp (Bacillus subtilis), Q9F4F7 | 3.5% of 310,000 active | Biochemical Sfp PPTase activity, qHTS; active = well fitted inhibition curve with a large enough effect; inconclusive = small, poorly fitted or top-dose-only effect, or another doubt; inactive = no such curve, though single readings can be large or run the other way;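 also: the enzyme is Sfp with the accession as filed and its product quenches rhodamine fluorescence; potency is read from the fitted curve at half-maximal effect; 0% = enzyme reaction without inhibitor and -100% = no enzyme wells; top concentration of the series not given in the record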
#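 Compounds were incubated with enzyme (final 15 nM) for 15 min at room temperature before substrate addition started the reaction. Fluorescence at 525 nm excitation, 598 nm emission was recorded immediately and after 30 minutes.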
# CtBP-E1A inh: qHTS Assay for Inhibitors of the CtBP/E1A Interaction; 0.49% of 340,000 active; CtBP / adenovirus E1A interaction (AlphaScreen); activity change, % (no concentration beside the values); AID 651724, 2012; AlphaScreen GST-E1A/His-CtBP binding, 1536-well; stronger effect = lower value; control for the full effect not named in the record; in the data active means activity change below about -65%; inconclusive means about -30% to -65%; inactive means above about -30%; also: % is scaled to controls: 0 for no effect and ±100 for the full control effect; compound concentration not given in the record
#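 GST-E1A and His-tagged CtBP (125 nM each as 5X stock) were preincubated with pin-transferred compound for 2 h at 37 °C in the dark, then glutathione donor and nickel acceptor beads were added for 1 h before AlphaScreen reading.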
# TRPV1 PAM: HTS Assay for Compounds that Act as Potentiators of the Vanilloid Receptor 1 | Transient receptor potential cation channel subfamily V member 1 (Homo sapiens), Q8NER1 | AID 540277, 2011 | TRPV1-expressing cells, Fluo-8 calcium influx, capsaicin EC20 potentiation; host cell line not named in the record; control for the full effect not named in the record | 0.02% of 320,000 active | potentiation, % at 8.33 µM; active means potentiation above 80%; inconclusive means 30% to 80%; inactive means below 30%; also: 0% is about no effect
# Target sequence (Q8NER1 whole entry, looked up): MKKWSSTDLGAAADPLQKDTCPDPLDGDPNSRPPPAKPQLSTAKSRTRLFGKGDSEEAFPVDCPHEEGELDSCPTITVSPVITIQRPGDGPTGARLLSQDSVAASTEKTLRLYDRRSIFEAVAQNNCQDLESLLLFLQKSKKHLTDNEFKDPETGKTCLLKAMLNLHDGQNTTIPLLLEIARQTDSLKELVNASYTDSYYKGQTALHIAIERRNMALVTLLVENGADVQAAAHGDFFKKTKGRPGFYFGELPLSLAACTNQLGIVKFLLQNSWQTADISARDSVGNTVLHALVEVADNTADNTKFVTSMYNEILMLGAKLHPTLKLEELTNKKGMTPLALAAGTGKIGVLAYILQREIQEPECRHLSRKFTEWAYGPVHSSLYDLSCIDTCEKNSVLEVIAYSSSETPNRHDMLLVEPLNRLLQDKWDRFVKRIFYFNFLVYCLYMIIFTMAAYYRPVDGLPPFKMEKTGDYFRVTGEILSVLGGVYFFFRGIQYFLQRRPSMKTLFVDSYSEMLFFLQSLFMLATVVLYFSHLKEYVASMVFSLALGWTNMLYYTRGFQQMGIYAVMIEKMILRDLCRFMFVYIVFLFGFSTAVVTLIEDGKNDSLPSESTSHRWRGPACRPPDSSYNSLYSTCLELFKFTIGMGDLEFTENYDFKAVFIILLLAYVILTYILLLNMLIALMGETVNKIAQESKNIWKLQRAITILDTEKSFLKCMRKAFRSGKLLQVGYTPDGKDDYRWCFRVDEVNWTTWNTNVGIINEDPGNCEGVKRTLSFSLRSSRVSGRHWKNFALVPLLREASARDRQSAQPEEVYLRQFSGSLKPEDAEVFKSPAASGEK
#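 Cells expressing TRPV1 were dye-loaded with Fluo-8 and read kinetically: 10 s baseline, 3 min after compound (agonist portion), then 2 min after EC20 capsaicin (allosteric enhancer portion). Calcium-bound dye fluorescence at 480/520 nm.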
# Six1-Eya2 inh: qHTS Assay for Inhibitors of the Six1/Eya2 Interaction; AlphaScreen GST-Six1/His-Eya2 binding, biochemical; stronger effect = lower value; control for the full effect not named in the record; activity change, % (no concentration beside the values); 0.56% of 360,000 active; AID 651725, 2012; in the data active = activity change below about -65%; inconclusive = about -30% to -65%; inactive = above about -30%; also: % is scaled to controls: 0 for no effect and ±100 for the full control effect; compound concentration not given in the record
#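 AlphaScreen with GST-Six1 and His-Eya2 (5X mix: 250 nM and 500 nM), glutathione donor and nickel acceptor beads; buffer 50 mM Tris pH 8.0, 300 mM NaCl, 1 mM TCEP; 1 h at 37 C in the dark.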
# D2 PAM: Beta-Arrestin HTS for Positive Allosteric Modulators of the Human D2 Dopamine Receptor: Potentiators | DiscoveRx D2 beta-arrestin cells, luminescence, 90 min; 100% = 57 uM dopamine signal | AID 624464, 2012 | potentiation, % (test concentration not listed) | 0.23% of 360,000 active; active = potentiation of 50% or more; inconclusive = 30% to 50%; inactive = 30% or less;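 also: compound concentration not given in the record; tested on top of an EC20 dose of dopamine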
#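 D2 cells co-treated with compound plus 50 nM dopamine (EC20) for 90 min at 37 deg C to detect potentiation. Beta-arrestin recruitment was read as enzyme-fragment luminescence after 1 h at ambient temperature. Full response was set by 57 uM dopamine.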
# * marks the source's active call; other numbers are inactive results; u = inconclusive; x = no result given; [ ] = another dose, or the depositor's remark.
SMILES,D2 ag,PINK1 modulator,Sfp PPTase inh,CtBP-E1A inh,TRPV1 PAM,Six1-Eya2 inh,D2 PAM
O=C(Nc1cccc(C(F)(F)F)c1)C1Cc2c(-c3ccco3)ccnc2O1 (stereo not given),1.4,6.9%,x,0,x,-2,-3
COc1cccc(-c2cc(C(=O)Nc3c(C)nn(Cc4ccccc4)c3C)no2)c1,0.8,15%[38.3 µM],-5%,3,u,-7,-9
CC(C)C1NC(=S)N(Cc2ccccc2)C1=O (stereo not given),-2.5,-1.8%,6%,8,-17,0,-5
CCN(CC)S(=O)(=O)c1ccc2oc(C(=O)N3CCc4ccccc4C3)c(C)c2c1,2.8,1.1%,-21%,4,-13,-3,-15
O=C(CN(C(=O)c1ccccc1Cl)C1CCCCC1)Nc1ccc(Cl)c([N+](=O)[O-])c1,-3.0,-0.9%,15%,-10,x,-13,-7
O=[N+]([O-])c1cc(-c2nnc(N3CCOCC3)c3ccccc23)ccc1N1CCOCC1,-1.4,2.1%,11%,x,1,-7,-1
CCc1nc2ccc(C(=O)N3CCN(C(C)=O)CC3)cn2c1N(CC)C(=O)NCCc1ccccc1,-4.2,-0.3%,x,0,x,13,-7
O=C(Nc1nnc(SCc2ccc(F)cc2)s1)C1Cc2ccccc2CN1C(=O)c1ccco1 (stereo not given),1.0,-0.8%,-7%,0,26,-22,11
CC(C)(C)c1ccc2c(c1)N(CC(=O)N1CCOCC1)C(=O)CO2,-2.4,-0.1%,16%,1,-15,0,-6
O=C(CSc1nc(Nc2ccccc2)nc(N2CCOCC2)n1)Nc1cccc([N+](=O)[O-])c1,0.4,-1.1%,13%,-13,9,u,9
Cc1nc(NC(=O)c2ccco2)sc1C(=O)O,-6.1,0.4%,11%,3,9,4,-8
CCCCCn1c(SCCOCC)nc2c1c(=O)[nH]c(=O)n2C,1.2,1.2%,8%,9,-1,3,-7
COc1cc(C)c(Br)cc1S(=O)(=O)NCc1ccccc1,-4.4,x,9%,-7,-7,-2,-9
CS(=O)(=O)N1CC2CCCN2c2cc(C(F)(F)F)ccc21 (stereo not given),-3.7,3.4%,1%,-4,-9,-7,-1
Cc1c(C(=O)N(C)C(C)c2ccncn2)oc2c(F)cccc12 (stereo not given),-1.4,4.2%,2%,x,-7,8,-3
CCC(=O)N=c1sc2ccccc2n1-c1ccccc1,-3.5,-0.2%,-4%,-21,-4,-4,-5
Cc1cccc(C)c1OCC(O)CN1CCCCC1 (stereo not given),-3.7,1.6%,0%,-17,3,0,-4
Cc1cccc(-c2oc3ccc(-c4ccc5c(c4)OCO5)cc3c2C#Cc2cncn2C)c1,-2.0,1.9%,x,2,4,3,-14
O=C1/C(=C/c2ccsc2)N2CCC1CC2,3.3,1.2%,19%,-4,11,-1,-5
O=C(CCC1CC(=O)Nc2ccccc21)NCc1ccc(F)cc1 (stereo not given),5.4,-0.9%[38.3 µM],0%,-1,-1,0,0
O=C(CCCCC(=O)NN=Cc1ccc(Cl)cc1)NN=Cc1ccc(Cl)cc1,5.8,21%,x,-2,x,9,6
O=C(NCc1ccco1)C12CC3CC(C1)CC(C(=O)NCc1ccco1)(C3)C2,-3.0,4.8%[38.3 µM],-9%,-2,2,0,-5
CCOC(=O)CNC(=O)CN1CCCN(S(=O)(=O)c2ccc(Br)s2)CC1,-1.1,0.5%,-21%,-2,x,-4,8
COc1ccccc1CNc1nc(NCCN2CCNC2=O)c2sccc2n1,-3.2,0.8%,x,0,x,-6,-8
CCC(C)(C)n1nnnc1C(c1cc2cc3c(cc2[nH]c1=O)OCO3)N1CCN(C)CC1 (stereo not given),-3.3,3.1%[38.3 µM],11%,5,7,3,-10
Cc1nnc(SCc2nnc(-c3cccs3)o2)n1C1CCCCC1,4.2,-0.5%,19%,x,-5,5,-8
O=C(NCc1ccccn1)c1cc(-c2ccccc2Cl)on1,-5.4,-1.1%,2%,-2,-8,0,-12
CC(C)(CC(=O)O)CC(=O)N1CCN(c2nc3cc(Cl)ccc3s2)CC1,4.8,4.7%,15%,2,-11,-3,-1
CCCCNC(=O)Cc1c(OC)ccc2cc(Br)ccc12,-1.0,13%,5%,3,-11,-11,-18
O=C(Cc1ccc(NC(=O)C2CCN(C(=O)c3ccccc3)CC2)cc1)Nc1cccc(C(=O)N2CCCCC2)c1,1.3,0.7%,x,8,x,5,1
O=C(/C=C/c1cccc2ccccc12)N1CCOCC1,-5.3,-0.9%,10%,3,-19,-1,-7
Cc1sc2nc(CSC(C)C(=O)Nc3ccccn3)[nH]c(=O)c2c1C (stereo not given),1.5,1.5%,x,5,10,3,-1
CCN1CCCC1CNC(=O)C(=O)Nc1ccccc1 (stereo not given),1.0,0.8%,23%,5,8,0,-7
O=S(=O)(c1ccc2nc(COc3ccccc3)[nH]c2c1)N1CCOCC1,-0.5,5.5%[38.3 µM],11%,1,-26,-2,-12
COc1cccc(-c2nnc(-c3ccc(C(F)(F)F)cc3)o2)c1OC,-6.7,1.1%,14%,7,-15,4,-1
CCc1nnc(NC(=O)CSc2nc3ccccc3o2)s1,-1.4,7.2%[38.3 µM],18%,0,22,0,-19
Cc1ccccc1CN1CCN(CC(=O)NCc2ccc3c(c2)OCO3)C1=O,-1.5,3.5%[38.3 µM],14%,8,4,2,-5
Cn1ncc(Cl)c1C(=O)NC1CCCC1,-1.4,-0.2%,10%,8,2,0,-1
CC(=O)c1ccccc1OCC(O)CN1CCN(C(c2ccccc2)c2ccccc2)CC1 (stereo not given),-2.2,11%,-6%,-7,u,-1,-6
CCCCNc1oc(-c2ccc(OC)cc2)nc1S(=O)(=O)c1ccccc1,-2.6,2.9%[38.3 µM],50µM*,4,13,-3,-15

# Some of these compounds in order of count of non-hydrogen atoms, rising.
SMILES,D2 ag,PINK1 modulator,Sfp PPTase inh,CtBP-E1A inh,TRPV1 PAM,Six1-Eya2 inh,D2 PAM
CCN1CCCC1CNC(=O)C(=O)Nc1ccccc1 (stereo not given),1.0,0.8%,23%,5,8,0,-7
O=S(=O)(c1ccc2nc(COc3ccccc3)[nH]c2c1)N1CCOCC1,-0.5,5.5%[38.3 µM],11%,1,-26,-2,-12
O=C(CCCCC(=O)NN=Cc1ccc(Cl)cc1)NN=Cc1ccc(Cl)cc1,5.8,21%,x,-2,x,9,6

# The list goes on.
SMILES,D2 ag,PINK1 modulator,Sfp PPTase inh,CtBP-E1A inh,TRPV1 PAM,Six1-Eya2 inh,D2 PAM
CC(NC(=O)Cn1cnc([N+](=O)[O-])n1)c1ccccc1 (stereo not given),0.1,-0.3%,3%,4,x,6,-13
O=C(Cn1cnc2ccccc21)Nc1ccc(SC(F)F)cc1,-1.9,1.3%,12%,1,-49,-2,-12
COC(=O)C1=C(C)NC(C)=C(C(=O)OC)C1c1ccc2ccccc2n1,-3.2,4.3%,16%,0,-2,18,-22
CCCCN(CC)Cc1ccc(CNC(=O)Nc2ccc(OCC)cc2)o1,-1.9,1.7%[38.3 µM],14%,-1,-8,-1,-3
CN(C)c1ccc(/C=N/NC(=O)CNC(=O)/C=C/c2ccccc2)cc1,0.6,-1.2%,8%,-12,-1,-9,-13
CCNC(=O)CCc1nc(-c2ccc(C)cc2)no1,-1.3,-0.6%,-5%,5,-4,4,-7
O=C(/C=C/c1ccc2c(c1)OCO2)NC1CCCC1,-2.6,-1.4%,21%,x,-17,5,-20
O=C1CC(C(=O)N(CC2CCCO2)C(C(=O)NC2CCCCC2)c2ccncc2)CS1 (stereo not given),4.9,9.1%[38.3 µM],1%,1,27,3,7
O=P(CCc1ccccc1)(c1ccccc1)c1ccccc1,-3.3,1.2%,x,0,x,7,-10
CCN(C(=O)c1nn(-c2ccc(OC)cc2)c(=O)c2c1c1ccccc1n2C)c1ccc(OC)cc1,2.7,7.9%,-2%,6,3,5,-8
Cc1ccc(NC(=S)c2ccc(N(C)C)cc2)cc1,-5.5,0.5%,-3%,-14,-9,-22,-16
O=S(=O)(NCc1ccncc1)c1ccc(S(=O)(=O)NCC2CCCO2)cc1 (stereo not given),3.4,x,13%,11,8,3,-9
CCCCc1ccc(N=N/C(C(=O)Nc2cc(OC)c(NC(C)=O)cc2OC)=C(/C)O)cc1,3.6,18%,14%,2,4,-12,5
O=C(O)c1ccc(S(=O)(=O)c2ccc3c(c2)C(=O)N(NC(=O)c2ccc(O)cc2)C3=O)cc1,-1.0,-0.3%,17%,x,-23,-4,-6
O=C(NC1CCCCC1)C(c1ccncc1)N(CC1CCCO1)C(=O)C(F)(F)F (stereo not given),-6.2,0.3%,u,3,-11,-1,-5
CCOC(=O)c1c(C)c(C(=O)Nc2ccccc2)c(C)n1CC,2.0,4.7%[38.3 µM],7%,-4,-26,-2,1

# Molecules from the list above that contain an NH in an aromatic ring, in the order listed:
SMILES,D2 ag,PINK1 modulator,Sfp PPTase inh,CtBP-E1A inh,TRPV1 PAM,Six1-Eya2 inh,D2 PAM
CCCCCn1c(SCCOCC)nc2c1c(=O)[nH]c(=O)n2C,1.2,1.2%,8%,9,-1,3,-7
CCC(C)(C)n1nnnc1C(c1cc2cc3c(cc2[nH]c1=O)OCO3)N1CCN(C)CC1 (stereo not given),-3.3,3.1%[38.3 µM],11%,5,7,3,-10
Cc1sc2nc(CSC(C)C(=O)Nc3ccccn3)[nH]c(=O)c2c1C (stereo not given),1.5,1.5%,x,5,10,3,-1
O=S(=O)(c1ccc2nc(COc3ccccc3)[nH]c2c1)N1CCOCC1,-0.5,5.5%[38.3 µM],11%,1,-26,-2,-12

# In the list so far, these contain bromine.
SMILES,D2 ag,PINK1 modulator,Sfp PPTase inh,CtBP-E1A inh,TRPV1 PAM,Six1-Eya2 inh,D2 PAM
COc1cc(C)c(Br)cc1S(=O)(=O)NCc1ccccc1,-4.4,x,9%,-7,-7,-2,-9
CCOC(=O)CNC(=O)CN1CCCN(S(=O)(=O)c2ccc(Br)s2)CC1,-1.1,0.5%,-21%,-2,x,-4,8
CCCCNC(=O)Cc1c(OC)ccc2cc(Br)ccc12,-1.0,13%,5%,3,-11,-11,-18
